# INS promoter inh – TRM-6 insulin promoter activity inhibition | actives 0.9% (n = 130,000) | inhibition, % at 2 µM | AID 1273 | TRM-6 cells (human fetal islet line), insulin promoter-eGFP reporter, imaging; reporter expression induced with tamoxifen;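 active = inhibition above the mean plus 3 SD, with well images judged a real hit on visual review, cut at about 60% in these data, passing the limit was not always enough; inconclusive = inhibition over the cutoff but images rejected on review; inactive = inhibition not above the cutoff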
# RGS16-Gao HTS – RGS16-Galphao interaction regulator (human) | O15492+P09471 | bead-based flow cytometry RGS16-Galphao binding, fluorescence; actives lie on both sides | binding response (% of control), % at 10 µM | actives 0.38% (n = 220,000);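 active = below 25% or above 175%, edge rows of some plates excepted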;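 also: Galphao activated by GDP with aluminum fluoride before binding; 100% = wells without compound and 0% = beads without RGS; some results beyond the cut were filed as inactive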
# Target sequence (O15492 whole entry, looked up): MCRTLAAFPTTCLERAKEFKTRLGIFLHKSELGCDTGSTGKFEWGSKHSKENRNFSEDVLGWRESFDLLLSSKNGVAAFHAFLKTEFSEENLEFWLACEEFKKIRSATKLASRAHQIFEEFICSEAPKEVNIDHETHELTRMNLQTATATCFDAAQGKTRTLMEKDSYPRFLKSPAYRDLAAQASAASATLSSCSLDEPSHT
# Target sequence (P09471 whole entry, looked up): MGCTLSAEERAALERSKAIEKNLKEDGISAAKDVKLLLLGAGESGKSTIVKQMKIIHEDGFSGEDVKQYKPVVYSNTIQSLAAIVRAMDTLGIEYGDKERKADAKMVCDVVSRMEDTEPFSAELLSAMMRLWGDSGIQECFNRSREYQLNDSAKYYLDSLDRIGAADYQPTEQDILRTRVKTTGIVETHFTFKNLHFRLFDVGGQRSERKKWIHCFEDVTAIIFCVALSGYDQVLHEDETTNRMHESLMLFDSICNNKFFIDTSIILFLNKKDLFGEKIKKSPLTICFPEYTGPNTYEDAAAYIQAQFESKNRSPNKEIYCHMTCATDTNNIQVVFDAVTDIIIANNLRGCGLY
# PKD1 inh – PKD1 (human) kinase inhibition; Q15139; PKD1 kinase fluorescence polarization assay; inhibition, %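 (about 10 µM by stock and volumes)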; actives 0.056% (n = 200,000);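 active = inhibition of 50% or more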;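 also: controls were vehicle for no effect and a reference inhibitor for full effect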
# GALR2 ag – GALR2 (human) receptor agonism. GALR2-expressing cells, agonist activation read-out. O43603. activation, %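 (tested at 5 µM)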. actives 0.48% (n = 140,000);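 active = above mean plus 3 SD of all compounds, about 5% in these data, not always enough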;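 also: 0% = vehicle buffer wells and 100% = reference agonist at full effect; tested in CHO reporter cells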
# Target sequence (O43603 whole entry, looked up): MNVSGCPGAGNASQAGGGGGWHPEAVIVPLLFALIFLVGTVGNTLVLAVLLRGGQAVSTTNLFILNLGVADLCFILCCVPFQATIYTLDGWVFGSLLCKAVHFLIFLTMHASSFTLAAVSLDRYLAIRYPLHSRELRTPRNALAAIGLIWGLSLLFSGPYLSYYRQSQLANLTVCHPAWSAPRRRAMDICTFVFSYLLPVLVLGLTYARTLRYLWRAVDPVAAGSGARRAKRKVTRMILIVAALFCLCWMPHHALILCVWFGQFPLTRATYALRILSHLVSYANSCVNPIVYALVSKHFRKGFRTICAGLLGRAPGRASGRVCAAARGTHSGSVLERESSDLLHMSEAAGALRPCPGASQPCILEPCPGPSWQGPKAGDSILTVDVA
# HSV replic up – increases HSV replication in cells | HSV replication augmentation in cells, fold increase | maximum fold increase | actives 0.005% (n = 220,000) | AID 1956;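 active = peak rise of 1.5-fold or more in the series; inconclusive = self-fluorescent or not available for retest; tested in PC3 cells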;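 also: first round at 10 µM; read as green reporter fluorescence; hits show the peak of a series up to 25 µM; 1 = signal of infected wells without compound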
# INS promoter inh cell count – second read-out of INS promoter inh, no call of its own (marks repeat the call); normalized cell count, %; measured here: cell count, toxicity; reference of the scale not given here;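 cells exposed to compound for 48 h; stained nuclei by imaging scaled within each plate; lower means fewer cells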
# HSV replic up primary fold – recorded beside HSV replic up, whose call it bears; fold increase; compound at 10 µM; measured here: primary screen fold increase 10 uM; tested in PC3 cells;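 GFP signal in the first replicate; 1 = infected wells without compound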
# An asterisk follows results filed as active; i = inactive; ? = inconclusive; . = not tested or not shown; [ ] = dose if it differs, or a comment. This is a random part of the collection. Share with any hit: about 1.3%.
SMILES,INS promoter inh,INS promoter inh cell count,RGS16-Gao HTS,PKD1 inh,GALR2 ag,HSV replic up,HSV replic up primary fold
O=C(CNC(=S)N(CCCN1CCOCC1)Cc1cccs1)NCCN1CCOCC1,-34,98,101,-4,1.0,i,1
O=C1c2cccnc2C(Nc2ccc(S(=O)(=O)N3CCCCC3)cc2)N1Cc1ccccc1 (configuration not stated),7,41,88,-7,-2.0,i,1
CCNC(=O)CC1C(=O)N(c2ccccc2)C(=O)N1Cc1ccc(OC)cc1 (configuration not stated),-78,90,100,-12,-1.9,i,0.98
O=C(O)c1ccc(COc2c(F)c(F)cc(F)c2F)cc1,0,136,98,-9,-1.6,i,0.96
O=C(CCNS(=O)(=O)c1ccc(Br)cc1)NCc1cccs1,-150,101,103,2,.,i,1
COc1cccc(-c2cc(C(F)(F)F)n3ncc(C(=O)NCC4CCCO4)c3n2)c1 (configuration not stated),36,73,102,14,0.5,i,0.95
CCCNC(=O)C(Cc1ccccc1)NS(=O)(=O)c1cccc2nsnc12 (configuration not stated),-107,59,100,2,-3.6,i,1
O=C(CCNC(=O)c1ccccc1Cl)N/N=C\c1ccc(O)cc1,.,.,108,.,.,i,1
Cc1ccc(S(=O)(=O)Cc2cc(-c3ccc(Cl)cc3)no2)cc1,.,.,111,-1,.,i,0.92
Cc1nc(NC(=O)c2ccccc2)sc1-c1csc(NCc2ccccc2)n1,.,.,100,-10,-1.9,i,0.9
COC(=O)Cn1c(=NC(=O)c2nc3ccccc3s2)sc2cc(S(N)(=O)=O)ccc21,-4,92,101,-3,-0.4,i,0.79
CC(=O)c1cc(F)c(N2CCN(C(=O)C(C)(C)C)CC2)cc1C,31,115,112,-7,-0.2,i,1.1
Cc1ccc([N+](=O)[O-])cc1NC(=O)Nc1onc(C)c1C,.,.,90,.,.,i,0.98
O=C1CC(N2CCN(c3ccccc3Cl)CC2)C(=O)N1c1cccc(F)c1 (configuration not stated),35,65,92,109*,-0.5,i,0.92
CCN(CC)CCN(C(=O)c1cccc(N2C(=O)CCC2=O)c1)c1nc2cc3c(cc2s1)OCO3,33,85,102,-2,.,i,1.2
C=CCn1cccc(C(=O)Nc2ccc(OCC)cc2)c1=O,56,129,105,-6,.,i,0.93
CCC(C)C(NC(=O)OC(C)(C)C)C(=O)NCc1ccco1 (configuration not stated),.,.,107,-3,-2.1,i,0.84
NC(N)=Nc1nc2ccccc2o1,.,.,104,.,.,i,1.1
COc1cc(CN(C)C)cc(C=O)c1O,.,.,103,-2,.,i,0.91
O=C(/C=C/c1ccccc1)NC(=S)Nc1cccnc1,42,154,99,-12,-3.0,i,0.84

# Some entries already given, limited to HSV replic up primary fold, INS promoter inh cell count and PKD1 inh:
Structure	HSV replic up primary fold	INS promoter inh cell count	PKD1 inh
NC(N)=Nc1nc2ccccc2o1	1.1	.	.
CCNC(=O)CC1C(=O)N(c2ccccc2)C(=O)N1Cc1ccc(OC)cc1 (configuration not stated)	0.98	90	-12
O=C(CNC(=S)N(CCCN1CCOCC1)Cc1cccs1)NCCN1CCOCC1	1	98	-4

# Additional structures.
SMILES,INS promoter inh,INS promoter inh cell count,RGS16-Gao HTS,PKD1 inh,GALR2 ag,HSV replic up,HSV replic up primary fold
CC(C)n1nnnc1SCC(=O)NCCc1ccccc1,-75,110,101,-1,-0.6,i,0.92
CCN(C1CCCCC1)S(=O)(=O)c1ccc(S(=O)(=O)NCCc2ccncc2)cc1,12,100,99,-3,0.7,i,1
COC(=O)c1ccc(CN2CCN(Cc3ccccc3)C(CCO)C2)cc1 (configuration not stated),.,.,100,-5,.,i,1
COC(=O)C1C(O)C(C)C(O)C(C)(O)/C=C\C=C(/C)C(=O)Nc2c(C)c(OC(C)=O)c3c(c2O)C(=O)C(C)=C2OCOC(=C23)/C(C)=C/C(C)(O)C(O)C(C)C1O (configuration not stated),.,.,126,.,.,i,1.1
COc1ccc([C@@H]2Sc3cc(OC)ccc3N(CCN(C(C)C)C(C)C)C(=O)[C@H]2OC(C)=O)cc1,-367,53,105,-8,-3.0,i,0.81
COP(=O)(CN(Cc1ccccc1)C(=S)Nc1c(C)cccc1C)OC,-7,87,100,-6,.,i,1.1
O=C(CCCN1C(=O)c2cccc3cccc(c23)C1=O)Nc1ccon1,-41,143,98,1,.,i,0.99
O=C1CCNc2ccc(-c3ccccc3)cc21,-12,94,98,31,-2.0,i,1.1
Cc1ccc(S(=O)(=O)N2CCN(c3nc(C)c4c(c3C#N)CC(C)(C)OC4)CC2)cc1,-19,126,100,-5,0.3,i,0.84
CCOC(=O)Cc1c(Cl)c2ccccc2[nH]c1=O,-109,133,97,-1,.,i,0.98
CC(OC(=O)C12CC3CC(CC(O)(C3)C1)C2)C(N)=O (configuration not stated),.,.,106,1,.,i,0.75
COc1ccc(-c2cc(=O)[nH]c(=O)[nH]2)cc1,12,62,104,1,-0.7,i,1.1
CSc1nnc(-c2ccccc2)c(-c2ccccc2)n1,.,.,100,.,.,i,1.1
COc1ccc(C2c3c(oc4ccccc4c3=O)C(=O)N2c2ccccn2)cc1 (configuration not stated),.,.,101,12,-2.8,i,1.1
COc1ccc2c([N+](=O)[O-])c(Cl)[nH]c2c1,.,.,99,1,.,i,0.85
O=C(Nc1ccccc1)c1c2c(nc3ccccc13)CCCC2,.,.,103,.,.,i,0.89
COc1ccc(-n2c(=O)c3ccccc3c3ccccc3c2=O)cc1,.,.,124,-13,-2.2,i,1.1
CCCC(=O)Nc1cccc(Oc2nc(C)cc(C)c2C#N)c1,49,49,98,-7,-0.8,i,0.94
C/C(=N\N1CCN(Cc2ccccc2Cl)CC1)c1ccc(F)cc1,.,.,104,.,.,i,0.96
C=CCNC(=S)NCCO,.,.,99,.,.,i,1
CC(=O)c1ccc(NS(=O)(=O)c2ccc(C(C)(C)C)cc2)cc1,.,.,105,-5,.,i,1
O=C(CSc1nc2ccc(Cl)cc2[nH]1)N1CCN(C(=O)c2ccco2)CC1,.,.,79,-14,-0.1,i,0.82
CCCCC(=O)N1CCN(c2ccc(OC)cc2[N+](=O)[O-])CC1,21,129,112,-8,-2.5,i,1
O=C(Nc1ccc(F)cc1F)NC1CC(=O)N(Cc2ccccc2)C1 (configuration not stated),12,81,99,-12,-0.6,i,1.1
O=C(Cn1nc(C(F)(F)F)cc1C1CC1)Nc1ccccc1F,-6,76,100,-2,-0.3,i,0.83
CCOC(=O)N1CCC(NC(=O)CSCc2nc(-c3ccc(OC)c(OC)c3)oc2C)CC1,.,.,100,-1,-1.1,i,0.85
O=C(c1ccc(NC2=NC3CS(=O)(=O)CC3S2)cc1)N1CCN(C(=O)c2ccco2)CC1 (configuration not stated),35,120,105,-5,-0.6,i,1
Cn1cc(CN2CCc3ccccc3C2)c2ccccc21,81*,54*,99,4,-0.4,i,0.96
O=C(CN1C(=O)c2cccc([N+](=O)[O-])c2C1=O)N1CCN(c2ccc(F)cc2)CC1,-6,100,101,0,.,i,1
CCOC(=O)N/N=C/c1ccc(F)cc1,.,.,107,3,-1.5,i,1.1
C=CCN(c1ccccc1Cl)S(=O)(=O)c1cc(C(=O)N2CCCC2)ccc1Cl,.,.,105,.,.,i,0.93
O=C(COC(=O)c1ccc(O)cc1)Nc1cc(C(F)(F)F)ccc1Cl,.,.,98,3,.,i,0.78
O=C1CSC(c2ccc3c(c2)OCO3)N1c1ccc(Oc2ccccc2)cc1 (configuration not stated),19,66,121,-12,-2.0,i,0.88
O=C(NC(=S)N(CCc1ccccc1)CCc1ccccc1)c1ccco1,.,.,93,-2,-2.0,i,0.98
Cc1ccc(NC(=O)C2CCN(C(=O)NC3CCCCC3)CC2)cc1Cl,.,.,102,-2,-1.2,i,1
CC(=O)Nc1ccc(S(=O)(=O)NCc2ccccn2)cc1,0,117,106,3,-1.5,i,0.98
CCN(CC)c1cccc(OCC(=O)N(C)CCC#N)c1,.,.,91,5,2.3,i,0.83
O=C(NCc1cccs1)c1cc2c(s1)CCCC2,30,105,101,0,-0.9,i,1.1
CC(CS(=O)(=O)c1ccc2ccccc2c1)N1CCN(C2CCCCC2)CC1 (configuration not stated),0,92,.,-1,0.2,.,.
O=[N+]([O-])c1cc(C(F)(F)F)ccc1NCCCCNS(=O)(=O)c1ccc(Cl)cc1,7,89,114,-13,-1.1,i,0.87
N#Cc1c2c(c(NCCOCCO)n3c1nc1ccccc13)CCCC2,9,127,105,-9,.,i,1
O=C(NCCCOc1cccc(CN2CCCCC2)c1)c1ccc(Cl)c(Cl)c1,.,.,97,-7,-0.6,i,0.57
CC(=O)Nc1cccc(-n2nnc(SCC(=O)c3ccccc3)n2)c1,.,.,100,.,.,i,1
CS(=O)(=O)NCc1nnc(SCc2ccccc2C(F)(F)F)o1,.,.,78,-9,-0.6,i,0.93
CC(C)C(=O)Nc1cccc(NC(=O)c2cccnc2)c1,-61,90,121,-3,-1.8,i,0.98
O=[N+]([O-])c1ccc(-c2ccc(S(=O)(=O)NCCN3CCCC3)cc2)cc1,.,.,97,-19,.,i,0.65
O=C1CC(NN2CCCCC2)C(=O)N1c1ccccc1 (configuration not stated),3,86,115,0,.,i,1
O=C(CCN1C(=O)c2ccccc2C1=O)Nc1ccc(-c2nc3ccccc3o2)cc1,44,90,96,-9,0.6,.,.
COc1ccc(Cl)cc1NS(=O)(=O)c1ccc(OC)c(OC)c1,50,120,89,-3,-2.4,i,0.75
COc1ccc(NC(=O)c2sc(SC)nc2N)cc1,-15,112,104,-9,-1.6,i,0.96
S=c1[nH]nc(-c2ccco2)n1/N=C/C=C/c1ccccc1,6,78,87,-9,-0.5,.,.
O=C(COC(=O)C1CC2C=CC1C2)NCc1ccc(F)cc1 (configuration not stated),.,.,100,-11,-1.5,i,0.86
CC(C)c1ccccc1NC(=O)COC(=O)C1(C)CC1(Cl)Cl (configuration not stated),14,123,99,3,.,i,1
O=C(COc1ccccc1)Nc1ccccc1Cl,-20,126,94,9,.,i,0.93
O=C(COc1ccccc1/C=C\c1[nH]c(=O)[nH]c(=O)c1[N+](=O)[O-])Nc1ccccc1,.,.,99,10,.,i,0.99
Cc1[nH]c(=O)[nH]c(=O)c1/C=N/NC(=O)CCNC(=O)OC(C)(C)C,.,.,101,.,.,i,0.92
COC(=O)c1cc(NS(=O)(=O)c2ccc(C(C)C)cc2)ccc1N1CCOCC1,.,.,102,.,.,i,1.1
CCn1nnnc1-c1ccc(OC)c(S(=O)(=O)Nc2ccc(C(=O)OC)cc2)c1,-250,74,102,-2,0.2,i,0.77
O=C(COC(=O)c1ccc(NS(=O)(=O)c2ccc3c(c2)OCCO3)cc1)NCC1CCCO1 (configuration not stated),8,213,99,-9,-0.6,i,0.98
CC1CCCC(C)N1/N=C/c1ccc(C(=O)O)cc1 (configuration not stated),.,.,103,.,.,i,1.1

# More entries
SMILES,INS promoter inh,INS promoter inh cell count,RGS16-Gao HTS,PKD1 inh,GALR2 ag,HSV replic up,HSV replic up primary fold
CCCS(=O)(=O)NCCc1csc(-c2ccc(OC)c(OC)c2)n1,.,.,102,.,.,i,1
Cc1cc(C)cc(NC(=O)NC2CCN(CC(=O)Nc3cccc(Cl)c3C)CC2)c1,.,.,97,.,.,i,0.79
CCN1CCN(Cc2c(O)ccc3c2O/C(=C\C=C\c2ccccc2)C3=O)CC1,0,77,187*[activator],-3,0.0,?,.
O=C(NCCCN1CCCCCC1)C1CCCN(S(=O)(=O)c2cccc3nsnc23)C1 (configuration not stated),.,.,101,-12,.,i,1
N#CCC(=O)NNC(=S)NC(=O)C(c1ccccc1)c1ccccc1,50,92,103,-1,.,i,1
CCOC(=O)c1cc[nH]c1C,39,70,100,-8,.,i,0.97
COCCOC(=O)C1=C(C)NC(=O)NC1c1ccco1 (configuration not stated),.,.,100,.,.,i,0.98

# Profiles, looked up by structure.
# Record of COCCOC(=O)C1=C(C)NC(=O)NC1c1ccco1 (configuration not stated) : INS promoter inh = .; INS promoter inh cell count = .; RGS16-Gao HTS = 100; PKD1 inh = .; GALR2 ag = .; HSV replic up = i; HSV replic up primary fold = 0.98
# Record of CCN1CCN(Cc2c(O)ccc3c2O/C(=C\C=C\c2ccccc2)C3=O)CC1 : INS promoter inh = 0; INS promoter inh cell count = 77; RGS16-Gao HTS = 187*[activator]; PKD1 inh = -3; GALR2 ag = 0.0; HSV replic up = ?; HSV replic up primary fold = .
# Record of N#CCC(=O)NNC(=S)NC(=O)C(c1ccccc1)c1ccccc1 : INS promoter inh = 50; INS promoter inh cell count = 92; RGS16-Gao HTS = 103; PKD1 inh = -1; GALR2 ag = .; HSV replic up = i; HSV replic up primary fold = 1

# Screens deposited in PubChem by several laboratories.
